From PubChem
HCMV UL50-53 inh: inhibitors of HCMV UL50-UL53 interaction, biochemical, HTRF. inhibition, % (no concentration beside the values). AID 1918969, 2023. normalized percent inhibition. 0.15% of 190,000 active;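 active = both replicates at 50% or more, plus weaker picks with an unusually low signal ratio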;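 also: stock transfer was 100 nL into about 20 µL; 0% = negative control wells and 100% = wells with untagged competitor protein; inactives centre near -12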
GIV Gai3 FP: inhibitors of GIV peptide binding to Galpha-i3, primary screen, biochemical, fluorescence polarization, FITC-GIV GBA peptide, rat Galphai3. percent of control (FP), % (test concentration not listed). 90 min; hits give low values; scaled: aluminum fluoride 0%, vehicle 100%. AID 1224905, 2016. 0.42% of 210,000 active;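 active = replicate mean at 85% of control or lower, very high polarization wells dropped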;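 also: wells of about 15 µL received 100 nL stock; the first replicate is given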
Target sequence (P08753 whole entry, looked up): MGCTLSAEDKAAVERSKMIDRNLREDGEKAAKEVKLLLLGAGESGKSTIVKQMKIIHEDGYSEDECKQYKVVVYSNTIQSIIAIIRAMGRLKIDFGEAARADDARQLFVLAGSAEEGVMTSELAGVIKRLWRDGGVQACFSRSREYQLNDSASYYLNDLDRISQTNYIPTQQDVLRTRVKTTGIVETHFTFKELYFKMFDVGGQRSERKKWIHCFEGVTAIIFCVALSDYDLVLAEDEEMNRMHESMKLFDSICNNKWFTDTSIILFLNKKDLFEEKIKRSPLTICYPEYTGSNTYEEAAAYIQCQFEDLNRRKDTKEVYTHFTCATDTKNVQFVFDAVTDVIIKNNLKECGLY
Sa growth inh: S. aureus growth inhibition at 42 and 30 °C, primary screen, LtaS inhibitor project, RN4220, two temperatures; 0.53% of 170,000 active; OD600, 20 h, 42 °C; hits give low values; relative growth, % (no concentration beside the values); AID 720641, 2013;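 active = growth at 42 °C up to 50% and 20 or more points under that at 30 °C, or under 10% at both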;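 also: 300 nL library stock went into each well; scaled to the means of positive and negative controls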
Sa growth inh second temp: further read-out of Sa growth inh, marked with its call; relative growth, %; measured here: growth at 30 °C;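 optical density after 20 h as mean of two plates; 100% = untreated growth and lower means inhibition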
Numbers without * were called inactive; . = not tested or not shown; & = joins results of further samples.

Results follow in this order: HCMV UL50-53 inh, GIV Gai3 FP, Sa growth inh, Sa growth inh second temp
- COc1cc(/C=C2\C(=O)NC(=O)N(c3cc(C)cc(C)c3)C2=O)cc([N+](=O)[O-])c1O
  -80.5, 104.9, ., .
- CCOC(=O)C1CCN(c2nnc(N3C(=O)c4ccccc4C3=O)s2)CC1
  ., 95.2, 94.1, 85.9
- CC(C)Cc1ccc(S(=O)(=O)N2CCN(c3nc4ccccc4n4cccc34)CC2)cc1
  -25.4, 97.0, ., .
- O=C(/C=C/c1cccc(C(F)(F)F)c1)NCc1ccco1
  -56.5, ., 101.0, 96.0
- CC(C)C(=O)OCC(=O)Nc1cccc(Cl)c1
  -28.6, ., 97.6, 89.1
- COCCn1c(C)cc(C=C2C(=O)N(C)C(=S)N(C)C2=O)c1C
  ., 92.7, 84.0, 85.0
- Nn1c(COc2ccc(Cl)cc2)nc2ccccc2c1=O
  0.9, ., 98.8, 89.1
- O=C(COc1ccc(Cl)cc1Cl)Nn1c(O)c(C2=c3ccccc3=NC2=O)sc1=S
  5.9, 103.3, ., .
- O=C(COC(=O)c1ccccc1SCC(=O)N1CCCC1)Nc1ccc2c(c1)OCO2
  -34.2, ., 78.6, 79.1
- COc1ccccc1N(CC(=O)N(C)Cc1ccccc1)S(C)(=O)=O
  ., 109.4, 108.8, 81.8
- CCOC(=O)c1c(S(=O)(=O)N2CCCC(C(=O)N3CCN(c4cc(C)ccc4C)CC3)C2)c(C)n(C)c1C (configuration not stated)
  ., 102.3, 128.7, 90.8
- Cc1cccc(N2CCN(C(=O)c3cccn4c(=O)c5cc(Cl)ccc5nc34)CC2C)c1 (configuration not stated)
  ., 103.8, 97.8, 82.6
- O=C(NC1CC2CCCC(C1)N2C(=O)Nc1ccccc1)C1CC1 (configuration not stated)
  -3.6, 100.8, 96.0, 102.2
- COC(=O)C1=C(C)NC(C)=C(C(=O)OC)C1C(=O)OCc1nc2cc(C(=O)OC)ccc2c(=O)[nH]1
  -23.4, ., 66.4, 80.8
- COc1ccc(Nc2c3c(nc4ncnn24)CCC3)c(OC)c1
  -28.9, 106.1, ., .
- Cc1c(NC(=O)c2ccc3c(c2)C(=O)N(C)C3=O)cccc1C(=O)O
  -39.5, 107.0, 100.6, 97.8
- CCCOc1ccc(C(=O)N(CC(N)=O)C(C)C)cc1
  -21.1, ., 76.8, 95.1
- O=C1NCCCCC1NS(=O)(=O)c1ccccc1 (configuration not stated)
  -5.5, 100.0, 89.7, 94.6
- O=c1c2oc3ccccc3c2[nH]c(=S)n1Cc1cccs1
  -0.2, 108.5, 99.1, 91.8
- CCSc1nn(CC(=O)Nc2ccc(C)cc2C)c(N)c1S(=O)(=O)c1ccc(C)cc1
  -21.2, 95.7, ., .
- O=C(CCS(=O)(=O)c1cccc2nonc12)N1CCCCC1
  ., 92.3, 113.1, 89.4
- Cc1nn(CC(=O)NC(C)c2ccccc2)c(=O)c2cc3occc3n12 (configuration not stated)
  -12.5, 100.7, 106.5, 91.2
- Cc1cc(-n2ccnc(NCCc3ccc(S(N)(=O)=O)cc3)c2=O)ccc1Br
  ., 104.7, 88.2, 82.7
- CCN(CC)Cc1csc(C(N)=O)c1
  5.6, 99.9, 107.4, 96.6
- O=C(COC(=O)CCc1ccccc1)NC12CC3CC(CC(C3)C1)C2
  -42.8, ., 104.6, 87.0
- O=S(=O)(Cc1ccc(Br)cc1F)c1ccccn1
  -9.6, 105.9, 93.4, 77.5
- Cc1noc(C)c1COC(=O)Cc1c[nH]c2ccccc12
  -8.4, ., 94.0, 81.3
- CC1CCN(C(=O)c2oc3ccccc3c2NC(=O)c2ccccc2F)CC1
  3.2, 109.0, 95.2, 100.9
- Cc1nc(-c2cccc(C(=O)NCc3ccccc3Cl)c2)no1
  -27.3, 101.9, ., .
- C/C(=N\NC(=O)Cc1csc(C)n1)c1ccc(C)cc1
  -8.7, ., 97.3, 91.2
- CC(C)c1cc(NC2CCCCC2)n2c(nc3ccccc32)c1C#N
  ., 105.2, 107.0, 89.4
- CCN1C(=O)C2(c3ccccc31)c1c(oc3ccccc3c1=O)C(=O)N2CCOC (configuration not stated)
  -17.3, 105.2, 107.8, 90.2
- Cc1ccc(C2c3[nH]c4ccccc4c3CCN2C(=O)CCc2ccccc2)cc1 (configuration not stated)
  ., 99.7, 87.1, 96.6
- Cc1cc(C)c2c(N)c(C(=O)NCC3CCCCC3)sc2n1
  0.8, ., 78.6, 95.0
- CC1CCC(C(=O)NC(Cc2ccccc2)C(=O)NCc2ccccn2)CC1 (configuration not stated)
  -1.4, 107.4, 98.6, 100.7
- CNCCCc1cc(C)ccc1O
  -12.5, 105.9, 107.8, 103.5
- CCOc1ccc(N2C(=O)CC(SCc3nc4ccccc4[nH]3)C2=O)cc1 (configuration not stated)
  7.6, 104.9, 100.6, 91.1
- COc1ccc(N2CCN(C(=O)CSc3n[nH]c(-c4ccccc4)n3)CC2)cc1
  ., 103.6, 94.5, 83.2
- COC(=O)c1sc(S(=O)(=O)NCc2ccccc2)c(C(=O)OC)c1C
  -10.5, 106.3, 110.9, 70.4
- C#CC(CC)(CC)NC(=O)CCc1nc2sc3c(c2c(=O)[nH]1)CCCC3
  -7.8, ., 134.2, 104.7
- CC(C)c1nnc(NC(=O)C2c3ccccc3Oc3ccccc32)s1
  22.4, 104.1&104.4, 92.0, 92.0
- CCOc1ccc(NC(=O)N(Cc2c[nH]c3ccccc23)C2CCCCC2)cc1
  -21.7, 107.1, 94.8, 92.0
- O=C(COc1ccccc1F)Nc1ccc(Cl)c(-c2nc3ccccc3[nH]2)c1
  -3.5, 100.2, 97.3, 73.5
- Brc1cccc(-c2nnc3sc(CNC4CCCC4)cn23)c1
  -25.3, 102.9, 94.0, 79.5
- CC1C(=O)CC(c2ccco2)NC1c1ccco1 (configuration not stated)
  -19.2, 98.1, 108.0, 101.0
- COc1cc(NC(=O)N2CCN(c3cc(-c4noc(C)n4)ccc3C)CC2)cc(OC)c1OC
  ., 99.0, 84.4, 86.2
- COc1ccccc1-c1n[nH]c(=S)o1
  -6.0, 103.7, 81.8, 77.0
- O=C1c2ccccc2C(=O)C1c1ccccc1
  -5.9&-47.4&-28.2, ., 100.2, 100.6
- Cc1noc2ncnc(NC3CCCC3)c12
  2.2, 96.8, ., .
- Cc1sc(-c2ccno2)cc1S(=O)(=O)NCc1cccs1
  -30.2, 106.7, ., .

(cont.)
Results follow in this order: HCMV UL50-53 inh, GIV Gai3 FP, Sa growth inh, Sa growth inh second temp
- O=S1(=O)c2ccccc2N(Cc2cccc(F)c2)c2ccccc21
  ., 95.6, 87.8, 94.9
- O=C(CCS(=O)(=O)Cc1ccccc1)N1CCN(c2ccccc2)CC1
  -7.9, 104.0, 99.0, 93.3
- Cc1ccc(S(=O)(=O)c2ccc(C(=O)N3CCN(c4ccccc4Cl)CC3)cn2)cc1C
  -24.5, 99.3, ., .
- COc1ccccc1CNC(=O)CCC1N=C2c3ccccc3N=C(SCC(=O)Nc3ccc(F)cc3)N2C1=O (configuration not stated)
  ., 105.8, 98.6, 90.6
- COc1cccc(C(=O)NC(NCC2CCCO2)(C(F)(F)F)C(F)(F)F)c1 (configuration not stated)
  ., 99.0, 121.4, 83.3
- Cc1nc2cc(N=Cc3ccc(Cl)cc3)ccc2n1Cc1ccccc1
  ., 100.6, 103.7, 82.7
- c1cc(OC2CCNCC2)cc(-n2cnnn2)c1
  -20.8&16.9, 101.4&105.3, 89.5, 83.3
- Cc1cc(N2CCC(C)CC2)n2nc(-c3cccnc3)nc2n1
  7.6, 108.0, ., .
- O=C1NC2c3ccccc3C(=O)N2c2ccccc21 (configuration not stated)
  -29.9, 99.0, 87.3, 81.9
- Cc1cc(C)cc(OC(=O)CN2C(=O)c3ccccc3C2=O)c1
  -14.8, 100.3, 92.5, 91.5

Entries of single compounds from above. Values in the order: HCMV UL50-53 inh | GIV Gai3 FP | Sa growth inh | Sa growth inh second temp
`O=C(CCS(=O)(=O)Cc1ccccc1)N1CCN(c2ccccc2)CC1` in the list: -7.9 | 104.0 | 99.0 | 93.3
`O=C1NC2c3ccccc3C(=O)N2c2ccccc21` (configuration not stated) in the list: -29.9 | 99.0 | 87.3 | 81.9
`Cc1cc(C)cc(OC(=O)CN2C(=O)c3ccccc3C2=O)c1` in the list: -14.8 | 100.3 | 92.5 | 91.5

Next structures follow.
Results follow in this order: HCMV UL50-53 inh, GIV Gai3 FP, Sa growth inh, Sa growth inh second temp
- CCOC(=O)c1ccc2c(c1)N(Cc1ccccc1F)C(=O)c1ccccc1S2(=O)=O
  -8.1, 95.4, ., .
- CCOC(=O)c1ccccc1NC(=O)N1CCC(CN2CCCC2)CC1
  ., 102.8, 96.5, 84.3
- Cc1nc(N2CCCC2)ncc1C(=O)N1CCN(c2ccccc2F)CC1
  ., 100.6, 88.8, 84.2
- O=c1[nH]n(-c2ncnc3sc4c(c23)CCCC4)c(=O)c2ccccc12
  -6.3, 101.8, 73.8, 91.5
- Cc1c(C)n(-c2ccc(F)cc2)c2ncnc(Nc3ccc(F)cc3Cl)c12
  -6.3, 107.4, ., .
- CC(C)N(C(=O)Cn1cc(S(=O)(=O)Cc2ccc(Br)cc2)c2ccccc21)C(C)C
  ., 109.3, 142.9, 89.6
- COc1ccc(S(=O)(=O)Nc2cccc(-c3ccc(N4CCCC4)nn3)c2)cc1F
  ., 103.6, 118.9, 91.6
- COc1ccc([Se]c2cc(O)c3c(c2N)C(=O)c2ccccc2C3=O)cc1
  -10.3, 105.2, ., .
- CCc1ccc(NC(=O)N2CCN(Cc3ccc4nccnc4c3)CC2)cc1
  -70.8, 101.5, ., .
- c1ccc(-c2nc(CSc3nnc4n3CCCCC4)cs2)cc1
  -27.9, ., 93.0, 91.8
- Cc1nc(SCC(=O)NN2C(=O)NC3(CCCCC3)C2=O)c2ccccc2n1
  -18.0, ., 88.4, 83.5
- O=C(OCCCN1C(=O)c2cccc3c(N4CCOCC4)ccc(c23)C1=O)c1cccc([N+](=O)[O-])c1
  -17.6, 107.1, ., .
- NC(=O)Cn1cnc2c(cnn2CCO)c1=O
  -21.6, 102.8, 94.0, 98.4
- Cc1nc2cccnc2n1-c1cc(C(=O)NC(C)C)ccc1Cl
  -2.4, 108.0, ., .
- Cc1ccc(-c2cc(C(=O)N3CCN(C)CC3)[nH]n2)cc1C
  -8.8, 103.1, ., .
- COc1ccc(-c2cc(-c3nnc(CSc4nnc(-c5ccncc5)n4C)o3)c3ccccc3n2)cc1OC
  -51.3, ., 80.5, 83.2
- O=C(Nc1c(C(=O)N2CCOCC2)oc2ccccc12)c1cccs1
  16.2, 106.1, 93.2, 105.1
- O=C(Cn1nnc2sc(-c3ccccc3)cc2c1=O)Nc1cccc(C(F)(F)F)c1
  -25.7, 122.2, 93.7, 85.8
- O=S(=O)(c1ccc(-c2cc(C(F)(F)F)on2)o1)N1CCCCC1
  -13.3, 104.6, ., .
- Cc1ccc(NCc2cc(=O)[nH]c3ccccc23)cc1
  -13.5, 100.5, 105.7, 76.5

Some of these compounds in order of the Sa growth inh second temp value, descending:
mol	GIV Gai3 FP	Sa growth inh second temp
NC(=O)Cn1cnc2c(cnn2CCO)c1=O	102.8	98.4
Cc1nc(SCC(=O)NN2C(=O)NC3(CCCCC3)C2=O)c2ccccc2n1	.	83.5
Cc1ccc(NCc2cc(=O)[nH]c3ccccc23)cc1	100.5	76.5

(next part)
Results follow in this order: HCMV UL50-53 inh, GIV Gai3 FP, Sa growth inh, Sa growth inh second temp
- Cn1cnc(S(=O)(=O)N2CCCC(C(=O)Nc3ccc(OC(F)(F)F)cc3)C2)c1 (configuration not stated)
  ., 97.9, 87.0, 81.3
- Cc1ccccc1-c1nc(CSc2nc(-c3ccccc3)cc(=O)[nH]2)c(C)o1
  -39.8, 106.3, ., .
- CCc1cccc(C)c1NC(=O)Cn1cnc2c1c(=O)n(C)c(=O)n2C
  -38.6, 103.4, 92.0, 91.4
- Cc1ccc(Nc2c(-c3ccc(C)s3)nc3ncccn23)cc1
  -19.6, 111.3, 102.6, 91.2
- O=C(CNc1ccc(C(F)(F)F)cc1)N1CCc2ccccc21
  -10.0, ., 100.8, 84.0
- CCOc1ccccc1NC(=O)CN1C(=O)C2(SCC(=O)N2c2cccc(F)c2)c2ccccc21 (configuration not stated)
  ., 105.0, 80.9, 94.4
- Cc1ccc(NC(=O)Cn2c(=O)n(Cc3ccccc3)c(=O)c3c(C)c(C(=O)N(C)C)sc32)c(C)c1
  ., 95.1, 92.9, 85.0
- O=C(Cn1cc2c(n1)CCCC2)Nc1cccc(C(F)(F)F)c1
  -14.8, 100.5, 94.6, 82.6
- COc1ccc(-c2cc(C(F)(F)F)nc(SCCC(=O)N3CCC(C)CC3)n2)cc1
  1.5, 109.0, ., .
- CC(C)(C)C(=O)CSc1nc2cc(Cl)c(Cl)cc2[nH]1
  -10.0, 103.2, 57.9, 92.2
